Screens (PubChem BioAssay)
D2 potentiator: Beta-Arrestin HTS for Positive Allosteric Modulators of the Human D2 Dopamine Receptor: Potentiators; D(2) dopamine receptor (Homo sapiens), P14416; 0.23% of 360,000 active; potentiation, % (no concentration beside the values); DiscoveRx D2 beta-arrestin cells, luminescence, 90 min; 100% = 57 uM dopamine signal; AID 624464, 2012; active = potentiation of 50% or more; inconclusive = 30% to 50%; inactive = 30% or less;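 also: compound concentration not given in the record; tested on top of an EC20 dose of dopamine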
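PathHunter D2 cells, attached overnight at 37 deg C, received compound in DMSO plus dopamine at EC20 (50 nM final) for 90 min at 37 deg C. Beta-arrestin recruitment was read as luminescence after 1 h with detection reagent at ambient temperature.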
TRPV1 potentiator: HTS Assay for Compounds that Act as Potentiators of the Vanilloid Receptor 1; Transient receptor potential cation channel subfamily V member 1 (Homo sapiens), Q8NER1; TRPV1-expressing cells, Fluo-8 calcium influx, capsaicin EC20 potentiation; host cell line not named in the record; control for the full effect not named in the record; potentiation, % at 8.33 µM; 0.02% of 320,000 active; AID 540277, 2011; active means potentiation above 80%; inconclusive means 30% to 80%; inactive means below 30%; also: 0% is about no effect
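Cells expressing TRPV1 were dye-loaded with Fluo-8 and read kinetically: 10 s baseline, 3 min after compound (agonist portion), then 2 min after EC20 capsaicin (allosteric enhancer portion). Calcium-bound dye fluorescence at 480/520 nm.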
Six1-Eya2 inh: qHTS Assay for Inhibitors of the Six1/Eya2 Interaction; AID 651725, 2012; 0.56% of 360,000 active; activity change, % (concentration not given with the values); AlphaScreen GST-Six1/His-Eya2 binding, biochemical; active compounds read low; control for the full effect not named in the record; in the data active = activity change below about -65%; inconclusive = about -30% to -65%; inactive = above about -30%; also: % is scaled to controls: 0 for no effect and ±100 for the full control effect
Target sequence (O00167 whole entry, looked up): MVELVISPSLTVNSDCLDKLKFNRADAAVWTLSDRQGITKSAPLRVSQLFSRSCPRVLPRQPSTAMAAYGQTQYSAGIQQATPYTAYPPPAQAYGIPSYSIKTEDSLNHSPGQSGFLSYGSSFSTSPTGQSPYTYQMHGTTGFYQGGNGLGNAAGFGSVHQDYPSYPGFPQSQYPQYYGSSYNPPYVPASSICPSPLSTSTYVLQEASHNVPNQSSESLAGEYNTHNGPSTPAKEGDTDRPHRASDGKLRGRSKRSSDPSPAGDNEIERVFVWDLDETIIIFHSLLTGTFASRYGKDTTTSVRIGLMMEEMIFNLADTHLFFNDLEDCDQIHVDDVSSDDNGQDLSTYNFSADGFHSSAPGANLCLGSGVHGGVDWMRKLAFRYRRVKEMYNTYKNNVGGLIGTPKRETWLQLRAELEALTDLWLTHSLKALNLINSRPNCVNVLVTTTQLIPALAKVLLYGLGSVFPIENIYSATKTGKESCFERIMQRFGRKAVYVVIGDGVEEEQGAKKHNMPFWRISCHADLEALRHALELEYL
Target sequence (Q15475 whole entry, looked up): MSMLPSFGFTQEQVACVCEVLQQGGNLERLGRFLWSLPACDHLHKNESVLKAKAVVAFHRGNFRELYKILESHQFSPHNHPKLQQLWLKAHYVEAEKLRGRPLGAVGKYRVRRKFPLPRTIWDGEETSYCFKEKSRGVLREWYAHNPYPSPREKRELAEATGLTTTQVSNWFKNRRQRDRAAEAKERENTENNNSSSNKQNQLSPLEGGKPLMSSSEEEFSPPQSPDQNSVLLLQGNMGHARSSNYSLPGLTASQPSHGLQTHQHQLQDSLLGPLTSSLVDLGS
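Homogeneous AlphaScreen proximity assay pairing GST-Six1 with His-tagged Eya2 (added as 5X mix: 250 nM and 500 nM) in 50 mM Tris pH 8.0, 300 mM NaCl, 1 mM TCEP. Glutathione donor and nickel acceptor beads; 1 h, 37 °C, dark.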
PINK1 expr mod: A Quantitative High throughput Screen to Identify Chemical Modulators of PINK1 Expression | PINK1 immunofluorescence, high-content cytometry, 24 h | Potency, µM (titrated, usually from 76.6 µM), inactives show at the top dose activation (PINK1 increase), actives largely listed as activators | 0.2% of 410,000 active | AID 624263, 2012; active = well fitted activation curve with a large enough effect; inconclusive = small, poorly fitted or top-dose-only effect; inactive = flat fitted curve, though single readings scatter; cell line not stated here;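 also: potency is read from the fitted curve at half-maximal effect; % of control where 0% means no effect; nearly all actives have a fitted effect of over 65% in size; a mitochondrial uncoupler was the plate control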
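Stable cell line, 250 cells/well, 12 h attachment; compounds pinned at 5 concentrations, 24 h; CCCP control. Fixed with nuclear dye, primary antibodies 12 h at 10 degrees C, secondary plus cell stain; laser-scanning cytometer read.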
CtBP-E1A inh: qHTS Assay for Inhibitors of the CtBP/E1A Interaction; CtBP / adenovirus E1A interaction (AlphaScreen); AlphaScreen GST-E1A/His-CtBP binding, 1536-well; active compounds read low; control for the full effect not named in the record; activity change, % (test concentration not listed); 0.49% of 340,000 active; in the data active means activity change below about -65%; inconclusive means about -30% to -65%; inactive means above about -30%; also: % is scaled to controls: 0 for no effect and ±100 for the full control effect
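Homogeneous bead-based format: GST-tagged E1A captured on glutathione donor beads, His-tagged CtBP on nickel acceptor beads; compounds precede bead addition by 2 h at 37 °C.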
Sfp inh: qHTS Assay for Inhibitors of Bacillus subtilis Sfp phosphopantetheinyl transferase (PPTase) | 3.5% of 310,000 active | Potency, µM, for inactives: max response, negative = inhibition, hits mostly inhibitors | AID 1490, 2009 | 4'-phosphopantetheinyl transferase ffp (Bacillus subtilis), Q9F4F7 | Biochemical Sfp PPTase activity, qHTS; active = well fitted inhibition curve with a large enough effect; inconclusive = small, poorly fitted or top-dose-only effect, or another doubt; inactive = no such curve, though single readings can be large or run the other way;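 also: the enzyme is Sfp with the accession as filed and its product quenches rhodamine fluorescence; potency is read from the fitted curve at half-maximal effect; 0% = enzyme reaction without inhibitor and -100% = no enzyme wells; top concentration of the series not given in the record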
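With Hepes-Na pH 7.6 buffer containing 10 mM MgCl2, Sfp (15 nM) modified BHQ-2-YbbR (12.5 uM) using rhodamine-CoA (5 uM). Two reads 30 minutes apart at 525/598 nm yielded each well's rate.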
D2 ag: Beta-Arrestin HTS for Positive Allosteric Modulators of the Human D2 Dopamine Receptor: Agonists; 0.084% of 360,000 active; D(2) dopamine receptor (Homo sapiens), P14416; DiscoveRx PathHunter D2 beta-arrestin, luminescence, 90 min; 100% = 57 uM dopamine signal; AID 624465, 2012; activation, % (no concentration beside the values); in the data active = activation above about 40%; inconclusive = about 15% to 40%; inactive = below about 15%; also: compound concentration not given in the record; the text of the record calls up to 30% inactive
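DiscoveRx PathHunter D2 beta-arrestin cells (2,100/well) attached overnight, then compound-stimulated 90 min at 37 C in HBSS/10 mM HEPES/0.1% Tween-20 buffer; beta-galactosidase complementation read by luminescence after 1 h at ambient temperature. Dopamine 57 uM final (EC100) as control.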
* marks the source's active call; other numbers are inactive results; ? = inconclusive; / = no result given; & = joins results of further samples; [ ] = another dose, or the depositor's remark.

SMILES | D2 potentiator | TRPV1 potentiator | Six1-Eya2 inh | PINK1 expr mod | CtBP-E1A inh | Sfp inh | D2 ag
Cc1ccccc1NC(=S)NCC(c1cccnc1)N1CCOCC1 (stereo not given) | 9 | 4 | 8 | 1.6% | 6 | 15% | -1.9
Cn1c(SCC(=O)Nc2ccc3c(c2)OCO3)nnc1-c1cnccn1 | -1 | -5 | -2 | 0.5% | 10 | 20% | -0.4
CC(=O)OCCCn1c(C)[n+](C)c2cc(Cl)c(Cl)cc21 | -4 | 27 | -10 | 2.1% | / | 1% | -8.1
O=C(NC(=S)Nc1cc(Cl)ccc1N1CCOCC1)c1ccccc1[N+](=O)[O-] | -10 | -5 | -27 | -0.1% | -4 | 0% | -1.6
CC1CCN(S(=O)(=O)c2cn(C)c(=O)n(C)c2=O)CC1 | -11 | 11 | 1 | 0.8% | 6 | 14% | -3.7
CC(=O)N1CCN(Cc2nc3cc(NS(C)(=O)=O)ccc3n2C)CC1 | 0 | 1 | 1 | 0.7%[38.3 µM] | 3 | 3% | -1.2
CCOC(=O)CCNCc1ccc(F)cc1 | -11 | -4 | -10 | 0.3% | -11 | 9% | -7.9
CCOC(=O)N1N=C(CC)CC1(O)C(F)(F)F (stereo not given) | -10 | -43 | 0 | 0.0% | 7 | -7% | -2.8
COc1ccc(C(=O)N2CCc3cc(OC)c(OC)cc3C2c2cccc([N+](=O)[O-])c2)cc1OC (stereo not given) | -16 | 16 | -10 | 0.3% | -4 | -5% | -3.3
CC(NC(=O)c1ccccc1)c1ccc(Br)cc1 (stereo not given) | -4 | 11 | 14 | 1.3% | / | 5% | 4.9
Cc1cc(C(=O)CN2C(=O)NC(C)(c3ccc(F)c(F)c3)C2=O)c(C)n1C1CC1 (stereo not given) | -11 | / | -13 | 0.9% | -7 | / | 0.1
COc1ccc(C(=O)C2CCN(C(=S)NCCc3ccc(OC)c(OC)c3)CC2)cc1 | 0 | 5 | -13 | 1.5% | 0 | 12% | 4.4
CCC(C)OC(=O)C1=C(C)O[C@]23OC(N)=C(C#N)[C@]12C(=O)c1ccccc13 (stereo not given in full) | 2 | 13 | 0 | 1.1% | -7 | 12% | -0.5
O=[N+]([O-])c1cccc(/C=N/Nc2ncc(Br)cn2)c1 | 7 | -11 | -1 | 4.9% | / | 17% | -4.2
C=CCNC(=O)/C(C#N)=C/c1ccccc1Cl | -8 | 1 | 4 | -1.1% | -24 | 18% | 4.8
COc1ccc(NS(=O)(=O)c2ccc(-c3coc(C)n3)cc2)cc1 | -8 | -5 | 1 | -0.2% | -15 | -15% | 7.0
COC(=O)[C@@H](NC(=O)NCc1cccc(OC)c1)C(C)C | -2 | -17 | 4 | -1.8%[38.3 µM] | 4 | 12% | 2.4
Cc1cc2oc(=O)c(CC(=O)NCCCN(C)C)c(C)c2c2occ(C(C)(C)C)c12 | -9 | 0 | 3 | -3.7% | -7 | ? | 5.1
CN(Cc1ccccc1)C(=O)C(=O)c1c[nH]c2ccccc12 | -9 | / | 4 | -0.7% | 2 | / | -0.1
CCOc1ccccc1NC(=O)CN1CCc2ccccc2C1 | -6 | -8 | 7 | 3.0% | -1 | -14% | 3.9
CN1C(=O)[C@H]2[C@@H](C3CC3)N3C(=O)CN(Cc4ccccc4)C(=O)[C@@]3(C)[C@H]2C1=O | -10 | 1 | 9 | 1.3% | 6 | 21% | -1.9
CNC(=S)N/N=C1\CC(c2ccccc2)Oc2ccccc21 (stereo not given) | -6 | 1 | ? | -0.9% | -28 | 30%[activator] | -5.1
O=C(C#Cc1ccccc1)Nc1ccccc1F | -1 | -5 | 2 | 2.2% | -6 | 4% | -1.1
CC(=O)Cn1cnc2c(sc3nc(C)cc(C)c32)c1=O | -7 | 1 | -22 | 1.8% | 2 | 9% | -2.7
CCS(=O)(=O)NCc1ccc2c(c1)cc(C)n2C | -10 | 5 | 2 | 0.2% | -4 | -4% | -3.8
CCCC(=O)Nc1nnc(S(=O)(=O)N2CCCCCC2)s1 | -6 | 20 | 5 | -1.2%&1.6% | -10 | 7% | 7.9
COc1ccc(C2CC(=O)C(C=NCCCO)=C(O)C2)cc1 (stereo not given) | 7 | -9 | -2 | 0.5% | / | 14% | 8.4
COCCCn1c(C(=O)N2CCOCC2)cc2c(=O)n3cccc(C)c3nc21 | -14 | / | 0 | 1.1% | 0 | / | -0.7
Cn1c(C(=O)Nc2ccc3c(c2)OCCO3)cc2c(=O)n(C)c3ccccc3c21 | 21 | -1 | -6 | -1.1% | -10 | 14% | ?
CC(C)C[C@H]1CNC(=S)N1C[C@H]1CCCN1C[C@H](Cc1ccc(O)cc1)N1C[C@H](Cc2ccccc2)N(CCc2ccccc2)C1=S | -8 | / | -7 | 0.7% | -7 | / | -3.4
Cc1ccc(NC(=O)CN2CCCCCC2)c(Br)c1 | -36 | -6 | 3 | 13% | 12 | 10% | -3.9
CCC[C@@H]1C=C(C(=O)OCC)[C@H](c2ccccc2)N1S(=O)(=O)c1ccc(C)cc1 | -3 | / | 13 | 2.5% | 2 | / | -2.3
CC(C)N(C(=O)COC(=O)CNC(=O)c1ccc(Br)cc1)c1ccccc1 | -5 | -6 | 0 | -0.9% | -10 | 6% | -0.7
CSCCC(NC(=O)c1ccco1)C(=O)O (stereo not given) | -6 | -2 | 6 | 0.7% | 8 | 14% | -2.3
CCOC(=O)c1c(NC(=O)Cn2nnc(-c3ccc(Cl)cc3)n2)sc(C)c1C | -11 | 10 | 1 | 12% | 0 | -1% | -1.2
CCCCNC(=O)N1CCN(C(=O)C2CCCO2)CC1 (stereo not given) | -4 | 9 | 6 | 4.3% | 0 | 12% | 1.8
COc1ccc(CC(=O)Nc2nc(C)cs2)cc1OC | -4 | 7 | -4 | -0.8% | 0 | 8% | -3.7
CCOC(=O)c1ccc(Nc2sc(C(=O)c3cccc([N+](=O)[O-])c3)c(N)c2C#N)cc1 | -22 | -7 | 4 | 14% | / | -5% | 0.3
NC1=NC[C@H](Cc2ccccc2)N1CCc1cc(C(F)(F)F)cc(C(F)(F)F)c1 | -9 | -29 | 3 | -1.0% | / | -10% | -3.2
Cc1nc(SC2CC(=O)N(c3cc(Cl)cc(Cl)c3)C2=O)nc2c1CCCC2 (stereo not given) | -2 | -1 | -15 | 4.9% | -1 | -9% | -2.5
CCCCc1nccn1CCn1ccnc1CCCC | -6 | 10 | 2 | -3.8%[38.3 µM] | 3 | -21% | -1.3
CCCCn1nc(C(=O)NC2CCCCCC2)c2ccccc2c1=O | -9 | / | 5 | 7.9% | 8 | / | -5.3
Cc1cc(C)c(NC(=O)C2=CCN(S(=O)(=O)c3ccc(F)cc3)CC2)c(C)c1 | 1 | -21 | -2 | 0.9% | 4 | -3% | -4.9
Cc1ccc(-c2cc3onc(-c4ccccc4)c3c(=O)n2C)cc1 | -11 | 15 | 4 | 0.3% | 5 | / | -0.5
CCc1ccc(C(O)(c2ccccc2OC)C(CN2CCOCC2)c2ccccc2)cc1 (stereo not given) | -4 | -32 | -13 | 1.9% | 0 | -17% | -1.8
COc1ccc(C(=O)Nc2ccc(S(=O)(=O)Nc3ncccn3)cc2)cc1OC | -2 | -1 | 17 | 0.7% | 18 | 15% | 0.0
O=C(O)c1ccccc1C(=O)Nc1ccccc1[N+](=O)[O-] | -1 | -2 | -16 | 0.0% | 4 | 11% | -2.6
CC1=C(C(=O)N(C(C)C)C(C)C)CC(CC(=O)NCc2cccc3ccccc23)C(=O)N1Cc1ccc(C(C)(C)C)cc1 (stereo not given) | -9 | / | 4 | 4.2% | -18 | / | -5.7
CCOc1ccc(/C=N/NC(=O)C(=O)NCc2ccco2)cc1 | -1 | 5 | 5 | 28% | -3 | 12% | -0.2
C=CCNc1cccc(Br)c1 | -3 | / | 6 | 1.4% | 5 | / | -3.7
CCN(CC)S(=O)(=O)c1ccc(OC)c(NC(=O)c2ccc([N+](=O)[O-])cc2)c1 | 9 | -19 | -17 | 7.8% | / | 8% | 14
N#C/C(=C\c1cn(CCOc2ccccc2)c2ccccc12)C(=O)NCc1ccco1 | -9 | / | 0 | 10.0% | 0 | 15% | -1.9
O=C(O)C1CCCCC1C(=O)NCCc1ccncc1 (stereo not given) | 5 | 3 | 6 | -0.3% | 0 | 11% | -1.4
COC(=O)C(O)(CC(=O)Nc1cc(OC)c(OC)c(OC)c1)C(F)(F)F (stereo not given) | -9 | 29 | 8 | -2.8% | 11 | -1% | -2.5
Cc1nc2sc(C(c3ccco3)N3CCOCC3)c(O)n2n1 (stereo not given) | -2 | -60 | -3 | 2.3%[38.3 µM] | 5 | -3% | -1.3
O=C(COC(=O)c1cccc(F)c1)NC(=O)NCc1ccccc1 | 1 | / | 4 | 10% | 5 | / | -0.9
O=[N+]([O-])c1nn(-c2ccccc2)[n+]([O-])c1N1CCN(c2ccccc2F)CC1 | -3 | -22 | -26 | 2.1% | -24 | 8% | 0.1
Cc1ccc(OCC(O)CN2CCCC2)cc1 (stereo not given) | -1 | -24 | 8 | 1.4% | 14 | 18% | -0.1
CCc1ccc(-c2cc(C)no2)cc1S(=O)(=O)Nc1ccc(Cl)cn1 | -5 | 22 | -2 | -0.1%&-0.9% | -20 | 7% | -11

Quoted from the listing.
For TRPV1 potentiator, COc1ccc(C(=O)Nc2ccc(S(=O)(=O)Nc3ncccn3)cc2)cc1OC shows -1
For TRPV1 potentiator, CCOc1ccc(/C=N/NC(=O)C(=O)NCc2ccco2)cc1 shows 5

2 successive records out of the list so far, for reference:
SMILES | D2 potentiator | TRPV1 potentiator | Six1-Eya2 inh | PINK1 expr mod | CtBP-E1A inh | Sfp inh | D2 ag
COc1ccc(C(=O)Nc2ccc(S(=O)(=O)Nc3ncccn3)cc2)cc1OC | -2 | -1 | 17 | 0.7% | 18 | 15% | 0.0
O=C(O)c1ccccc1C(=O)Nc1ccccc1[N+](=O)[O-] | -1 | -2 | -16 | 0.0% | 4 | 11% | -2.6
